# Shh pathway inh: Sonic Hedgehog pathway inhibition; inhibition, % (concentration not given with the values); Shh-LIGHT2 Gli-luciferase reporter, 30 h; hit rate 2.1% among 22,000;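 active means replicate mean of 65% or more; inconclusive means mean lower but half the replicates past it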;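 further: pathway switched on by Shh-conditioned medium diluted 1 in 25 in low serum; 100 nL library stock added to about 40 µL; 0% = median of neutral wells and 100% = positive control level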
# PD-1 reversal: activators reversing PD-1 mediated T-cell inhibition; primary human CD4 T cells, PD-L1 beads, CellTiter-Glo 96 h; 29,000 tested, under 10 active; activation, % (concentration not given with the values);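 active means replicate mean of 50% or more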;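 further: 0% = median vehicle wells and 100% = positive control; 100 nL library stock added to about 50 µL; numbers are from one replicate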
# MITF inhib: blocks MITF activity; TRPM1 promoter luciferase, luminescence, 24 h; inhibition, % (test concentration not listed); hit rate 0.28% among 37,000;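 active means most replicates at 85% or more, or half of them and the mean; inconclusive means half reach 85% but not the mean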;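 further: human melanocyte line stably carrying TRPM1 promoter luciferase reporter; 0% = vehicle wells and 100% = a positive control; the first replicate is given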
# YB-1 expr inh: YB-1 expression inhibition; hit rate 0.37% among 30,000; U2OS, qRT-PCR YB-1 vs CDIP delta delta Cp, 16 h; hits give high values; zero = DMSO, each unit about twofold; delta delta Cp (YB-1 minus CDIP) (concentration not given with the values);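 active means delta delta Cp rounded down to an integer at or above 3, about 3 SD of DMSO wells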;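 further: higher means less YB-1 transcript or more CDIP transcript relative to DMSO; stock transfer was 100 nL into about 100 µL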
# Starred values were filed as active, the others as inactive; ? = inconclusive; . = no result given.
canonical_smiles	Shh pathway inh	PD-1 reversal	MITF inhib	YB-1 expr inh
Cc1noc(C)c1NC(=O)Nc1ccc2c(c1)C(=O)N([C@H](C)CO)C[C@@H](C)[C@H](CN(C)Cc1ccc(-c3ccccc3)cc1)O2	-8	-1.8	-1	0.36
C[C@H]1CN([C@@H](C)CO)C(=O)Cc2cc(NS(=O)(=O)c3cn(C)cn3)ccc2O[C@@H]1CN(C)C(=O)Nc1ccc(C(F)(F)F)cc1	.	1.0	-3	-0.55
COC(=O)c1cc(OC)c(OC)cc1NC(=O)COc1cc(C)c(Br)cc1C	.	-6.0	-7	.
CC(=O)OC1CC2(C)C3CC=C4C(CC(O)C(O)C4(C)C)C3(C)CCC2(C)C1C(C)(O)C(=O)CCC(C)(C)O (configuration not stated)	-6	1.8	13	0.3
C[C@H](CO)N1C[C@H](C)[C@@H](CN(C)C(=O)Nc2ccc(F)cc2)Oc2ccc(NC(=O)Cn3cnnn3)cc2C1=O	27	0.7	2	-0.33
CCN(CC)CCOc1ccc(/C(=C(\Cl)c2ccccc2)c2ccccc2)cc1	51	.	4	0.052
C[C@@H]1CN([C@H](C)CO)C(=O)c2cccc(NC(=O)c3cnccn3)c2O[C@@H]1CN(C)S(=O)(=O)c1cccs1	17	3.0	-20	-0.33
C[C@@H]1CN([C@H](C)CO)C(=O)c2cccc(NC(=O)Nc3ccc(C(F)(F)F)cc3)c2O[C@@H]1CN(C)S(=O)(=O)c1ccc(F)cc1	-13	-3.7	18	-0.19
CS(=O)(=O)N(CC(=O)Nc1ccc(Br)c(Cl)c1)c1cc(Cl)ccc1Cl	.	2.6	15	.
Cc1ccc(OCC(=O)Nc2ccc3oc(-c4ccc(F)cc4)nc3c2)cc1C	.	3.2	-56	.
C[C@@H]1CN([C@H](C)CO)C(=O)c2cc(NS(=O)(=O)c3ccc(Cl)cc3)ccc2O[C@@H]1CN(C)Cc1ccc(C(F)(F)F)cc1	.	-2.0	35	-0.1
COc1cc(CO)cc(I)c1OCc1cccc(C(=O)O)c1	.	1.2	-51	.
COc1cc([C@@H]2C3C=C([C@H]4Oc5cc(O)cc(O)c5C(=O)[C@@H]4O)[C@H]4[C@@H]2COC4(O)C3=O)ccc1O	-11	-1.9	3	-0.18
Cc1ccc(S(=O)(=O)Nc2ccc3c(c2)C(=O)N([C@H](C)CO)C[C@H](C)[C@@H](CN(C)C(=O)Nc2c(C)noc2C)OCCCC[C@@H](C)O3)cc1	-5	1.1	-27	0.016
C[C@@H]1CN([C@@H](C)CO)C(=O)c2cccc(NC(=O)Nc3cccc4ccccc34)c2O[C@H]1CN(C)S(=O)(=O)c1cccs1	14	1.6	4	-0.34
C[C@@H]1CN([C@@H](C)CO)C(=O)c2cccc(NS(=O)(=O)c3ccc(Cl)cc3)c2O[C@@H]1CN(C)S(=O)(=O)c1cn(C)cn1	-34	-0.5	-8	-0.16
C[C@H](CO)N1C[C@H](C)[C@@H](CN(C)S(=O)(=O)c2cn(C)cn2)Oc2c(NC(=O)Nc3cccc4ccccc34)cccc2C1=O	-19	1.4	-4	0.13
Cc1cc(C)c(C)c(OCC(=O)NCc2ccco2)c1	.	-1.2	-24	.
CNC[C@H]1OCCCC[C@@H](C)Oc2ccc(NC(=O)NC(C)C)cc2C(=O)N([C@H](C)CO)C[C@@H]1C	.	0.2	-2	0.21
C[C@@H]1CN([C@H](C)CO)C(=O)c2cccc(NC(=O)C3CC3)c2O[C@@H]1CN(C)S(=O)(=O)c1cn(C)cn1	4	.	2	-0.061
CC(C)NC(=O)Nc1ccc2c(c1)CC(=O)N([C@H](C)CO)C[C@@H](C)[C@@H](CN(C)S(C)(=O)=O)O2	-7	.	2	-0.18
C[C@@H]1CN([C@@H](C)CO)C(=O)c2cccc(NS(=O)(=O)c3ccc(Cl)cc3)c2O[C@H]1CN(C)S(=O)(=O)c1ccccc1	-28	.	4	-0.2
O=C(CSC1=NCCS1)Nc1ccnc2ccccc12	.	1.8	31	.
Cc1nnc(SCC(=O)Nc2ccc(Oc3ccccc3)cc2)s1	.	-0.7	-12	.
COc1ccc(NC(=O)N(C)C[C@@H]2OCCCC[C@@H](C)Oc3ccc(N(C)C)cc3C(=O)N([C@H](C)CO)C[C@@H]2C)cc1	38	0.1	-2	-0.2
C[C@H]1CN([C@@H](C)CO)C(=O)c2cc(NC(=O)C3CC3)ccc2O[C@H]1CN(C)C(=O)Nc1cccc2ccccc12	-27	0.5	-4	-0.1
Cc1ccc(S(=O)(=O)Nc2ccc3c(c2)C(=O)N([C@H](C)CO)C[C@H](C)[C@@H](CN(C)S(=O)(=O)c2cccs2)O3)cc1	-6	-1.0	-17	-0.014
COc1c2ccoc2c(OC)c2oc(=O)ccc12	-43	.	8	-0.4
CCn1c(SCC(=O)Nc2ccc(C)cc2)nc2ccc(I)cc2c1=O	.	-1.4	22	.
Cc1noc(C)c1NC(=O)N(C)C[C@H]1Oc2ccc(NC(=O)Nc3ccccc3)cc2C(=O)N([C@@H](C)CO)C[C@H]1C	4	-0.1	-7	0.19

# A different layout for 3 compounds above:
C[C@H]1CN([C@@H](C)CO)C(=O)c2cc(NC(=O)C3CC3)ccc2O[C@H]1CN(C)C(=O)Nc1cccc2ccccc12
  Shh pathway inh: -27
  PD-1 reversal: 0.5
  MITF inhib: -4
  YB-1 expr inh: -0.1

C[C@@H]1CN([C@@H](C)CO)C(=O)c2cccc(NS(=O)(=O)c3ccc(Cl)cc3)c2O[C@H]1CN(C)S(=O)(=O)c1ccccc1
  Shh pathway inh: -28
  PD-1 reversal: .
  MITF inhib: 4
  YB-1 expr inh: -0.2

Cc1nnc(SCC(=O)Nc2ccc(Oc3ccccc3)cc2)s1
  Shh pathway inh: .
  PD-1 reversal: -0.7
  MITF inhib: -12
  YB-1 expr inh: .

# The results go on.
canonical_smiles	Shh pathway inh	PD-1 reversal	MITF inhib	YB-1 expr inh
COc1ccc(CN(C)C[C@@H]2Oc3c(NS(=O)(=O)c4ccc(C)cc4)cccc3C(=O)N([C@H](C)CO)C[C@H]2C)cc1	13	.	2	-0.5
CS(=O)(=O)N(CC(=O)Nc1cccc(Cl)c1Cl)c1cc(Cl)c(Cl)cc1Cl	.	0.6	-56	.
C[C@@H]1CN([C@H](C)CO)C(=O)Cc2cc(NC(=O)c3ccncc3)ccc2O[C@H]1CN(C)Cc1ccc(Oc2ccccc2)cc1	51	-1.5	2	-0.0039
C[C@@H]1CN([C@@H](C)CO)C(=O)c2cccc(NS(=O)(=O)c3cccs3)c2O[C@@H]1CN(C)Cc1ccc(Cl)c(Cl)c1	6	-0.2	-1	-0.38
Cc1ccc(S(=O)(=O)N(C)C[C@H]2Oc3ccc(NC(=O)Nc4ccc5c(c4)OCO5)cc3C(=O)N([C@H](C)CO)C[C@@H]2C)cc1	10	1.7	10	0.033
C[C@@H]1CCCCO[C@@H](CN(C)C(=O)c2ccccc2)[C@@H](C)CN([C@H](C)CO)C(=O)c2cc(NS(=O)(=O)c3ccc(F)cc3)ccc2O1	2	.	-14	-0.059
C[C@@H]1CN([C@@H](C)CO)C(=O)Cc2cc(NS(=O)(=O)c3ccc(Cl)cc3)ccc2O[C@@H]1CN(C)Cc1ccc(Oc2ccccc2)cc1	?	2.2	-5	0.095
CS(=O)(=O)N1CCN(c2ccccc2NC(=O)COc2ccc(Cl)cc2)CC1	.	-4.3	-54	.
C[C@@H]1CN([C@H](C)CO)C(=O)c2cc(N(C)C)ccc2O[C@H]1CN(C)S(C)(=O)=O	28	0.6	4	0.47
C[C@H]1CN([C@@H](C)CO)C(=O)c2cccc(NC(=O)c3ccc(-c4nccs4)cc3)c2O[C@@H]1CN(C)Cc1ccc(Oc2ccccc2)cc1	-26	1.9	-14	-0.5
Cc1ccc(S(=O)(=O)N(C)C[C@@H]2Oc3c(NC(=O)NC4CCCCC4)cccc3C(=O)N([C@@H](C)CO)C[C@@H]2C)cc1	100*	.	32	-0.4
O=C(Cn1cnc2ccccc2c1=O)Nc1ccc(S(=O)(=O)N2CCCC2)cc1	.	0.7	6	.
C[C@H](CO)N1C[C@H](C)[C@@H](CN(C)Cc2ccc3c(c2)OCO3)Oc2c(NC(=O)C3CCCCC3)cccc2C1=O	-21	-0.1	20	0.35
O=C(Nc1ccccc1C(=O)Nc1ccccc1)c1cccs1	9	-3.0	4	-0.55
Cc1ccc(S(=O)(=O)N(C)C[C@H]2Oc3c(NC(=O)c4cc(C)nn4C)cccc3C(=O)N([C@@H](C)CO)C[C@H]2C)cc1	-48	-0.1	9	0.029
CNC[C@@H]1Oc2c(NC(=O)Nc3ccc(OC)cc3)cccc2C(=O)N([C@H](C)CO)C[C@@H]1C	-38	0.3	2	-0.19
Cc1noc(C)c1NC(=O)Nc1ccc2c(c1)C(=O)N([C@@H](C)CO)C[C@@H](C)[C@@H](CN(C)C)O2	.	2.7	-3	-0.81
O=C(CSc1nc2ccccc2o1)c1cc2ccccc2oc1=O	.	0.7	-8	.
O=C(Sc1ccccc1)c1cccc(Cn2cc(C(F)(F)F)ccc2=O)c1	-11	2.2	-16	-0.19
COc1ccc(-n2ncc(NC(=O)N3CCOCC3)c2C)cc1	-15	0.6	-24	-0.15
C[C@@H]1CCCCO[C@@H](CN(C)Cc2ccc3c(c2)OCO3)[C@@H](C)CN([C@H](C)CO)C(=O)c2cc(NS(=O)(=O)c3ccc(Cl)cc3)ccc2O1	31	.	13	-0.046
C[C@@H]1CCCCO[C@H](CN(C)S(=O)(=O)c2ccc(Cl)cc2)[C@@H](C)CN([C@H](C)CO)C(=O)c2cc(NS(=O)(=O)c3ccc(Cl)cc3)ccc2O1	14	.	36	-0.03
Cc1noc(C)c1NC(=O)Nc1cccc2c1O[C@@H](CN(C)C)[C@H](C)CN([C@H](C)CO)C2=O	-20	.	-9	-0.18
C[C@H](CO)N1C[C@H](C)[C@H](CN(C)Cc2ccccc2)Oc2ccc(NC(=O)Nc3ccc4c(c3)OCO4)cc2CC1=O	-7	2.2	5	-0.041
O=C(CN1C(=O)c2ccccc2S1(=O)=O)Nc1cccc(O)c1	.	1.0	2	.
C[C@H](NCCc1ccc(O)cc1)[C@H](O)c1ccc(O)cc1	-15	.	3	-0.13
C[C@@H]1CCCCO[C@H](CN(C)CC2CCCCC2)[C@@H](C)CN([C@H](C)CO)C(=O)c2cc(NS(C)(=O)=O)ccc2O1	-38	.	-2	-0.11
C[C@H](CO)N1C[C@H](C)[C@@H](CN(C)Cc2ccc(C(=O)O)cc2)Oc2c(NC(=O)c3cnccn3)cccc2C1=O	-27	2.0	-5	0.58
CC(=O)Nc1ccc(S(=O)(=O)N(C)C2CCCCC2)cc1	-10	-0.7	-1	0.04
C[C@@H]1CCCCO[C@H](CN(C)C(=O)Nc2ccc(F)cc2)[C@@H](C)CN([C@H](C)CO)C(=O)c2cc(NC(=O)Cc3ccccc3)ccc2O1	-31	.	-6	-0.18
Cc1noc(C)c1S(=O)(=O)N(C)C[C@H]1Oc2ccc(NS(=O)(=O)c3ccc(F)cc3)cc2CC(=O)N([C@@H](C)CO)C[C@@H]1C	.	.	-10	0.74
Cc1noc(C)c1NC(=O)Nc1ccc2c(c1)CC(=O)N([C@@H](C)CO)C[C@H](C)[C@@H](CN(C)C(=O)Nc1ccc3c(c1)OCO3)O2	-50	-0.2	-2	-0.03
O=C(COc1ccc([N+](=O)[O-])cc1)Nc1cccc(O)c1	.	1.3	-33	.
C[C@H]1CN([C@@H](C)CO)C(=O)c2cccc(NC(=O)c3ccc(-c4nccs4)cc3)c2O[C@H]1CN(C)C(=O)Nc1ccc2c(c1)OCO2	5	0.9	-12	0.4
C[C@H]1CN([C@@H](C)CO)C(=O)c2cccc(NS(C)(=O)=O)c2O[C@H]1CN(C)S(=O)(=O)c1ccc(F)cc1	24	1.8	-8	-0.51
O=C(CNS(=O)(=O)c1ccccc1)Nc1cccc([N+](=O)[O-])c1	.	0.6	-7	.
C=CCSc1nc(N)cc(=O)[nH]1	-15	1.0	10	0.087
Cc1noc(C)c1NC(=O)Nc1ccc2c(c1)C(=O)N([C@H](C)CO)C[C@H](C)[C@@H](CN(C)C(=O)NC(C)C)O2	12	1.0	5	0.13
COc1cc(CO)ccc1OCC(=O)Nc1ccccc1F	.	1.4	-42	.
O=C(CNS(=O)(=O)c1cc(Cl)ccc1Cl)Nc1cccc([N+](=O)[O-])c1	.	1.8	3	.
C[C@@H]1CN([C@@H](C)CO)C(=O)c2cc(NC(=O)NC3CCCCC3)ccc2O[C@H]1CN(C)C(=O)Nc1ccccc1	-109	.	-7	0.15
C[C@H](CO)N1C[C@H](C)[C@H](CN(C)CC2CC2)Oc2c(NC(=O)C3CCCCC3)cccc2C1=O	-17	1.0	5	-0.39
Cc1noc(C)c1S(=O)(=O)Nc1ccc2c(c1)C(=O)N([C@@H](C)CO)C[C@@H](C)[C@@H](CN(C)S(=O)(=O)c1c(C)noc1C)O2	-20	0.4	-3	0.13
C[C@H](CO)N1C[C@H](C)[C@H](CN(C)Cc2ccccc2)Oc2c(NC(=O)c3nc4ccccc4s3)cccc2C1=O	15	-3.8	-1	0.36
Cc1ccc(C)c(OCC(O)CN2CCN(CCO)CC2)c1 (configuration not stated)	.	1.2	1	.

# Screens deposited in PubChem BioAssay by Broad Institute.

# Some of the compounds tested (hit frequency here may not be typical).
